# Mtb bLac sens: beta-lactam sensitization of Mtb H37Rv. 0.27% of 330,000 active. M. tuberculosis H37Rv growth with meropenem, percent inhibition; hits of this screen are not shown here. inhibition, % at 25 µM;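 active means about 74% or more and at least 40 points above the plate without the antibiotic, then above 30% in a dose series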;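 further: growth measured after seven days incubation then overnight dye step; 0% = bacteria only wells and 100% = bacteria with antibiotic; twin plates without the antibiotic show which effects depend on it; some results filed as inactive read as strong as hits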
# * hit, by the source's call. An excerpt. The share of hits here may be higher or lower than overall.
cpd	canonical_smiles	Mtb bLac sens
1	C=CCC[C@H](Cc1ccc(F)cc1)C(=O)OC[C@@H](Cc1c[nH]c2ccccc12)NC(=O)[C@H](CC=C)CC(=O)N[C@H](CO)Cc1ccccc1	-6.3
2	CN(C)C1=NC[C@H](Cc2ccccc2)N1CCCCc1ccccc1	1.0
3	O=C(Nc1ccccc1N1CCOCC1)c1ccc(F)c(S(=O)(=O)N2CCOCC2)c1	-7.2
4	Cc1ccc(S(=O)(=O)N2CCN(C(=O)COC(=O)c3ccc([N+](=O)[O-])o3)CC2)c(C)c1	76.6
5	Cc1cc(C(=O)NNC(=O)c2ccc(F)cc2)c(C)s1	1.4
6	CC(C)(C)n1ncc2c(=O)n(Cc3c(Cl)cccc3Br)cnc21	10.1
7	CCCOc1ccc(NC(=O)CCC(=O)NC(C)c2ccccc2)cc1 (stereo not drawn)	74.3
8	COc1ccc(-c2nn(Cc3ccccc3)cc2C(=O)N2CCN(c3ccccn3)CC2)cc1OC	-7.3
9	CC1CN(S(=O)(=O)c2ccc(C(=O)Nc3ccccc3F)cc2)CC(C)O1 (stereo not drawn)	0.4
10	N#Cc1ccc(CN2CCN(C(=O)c3cc(Cl)c4c(c3)OCCO4)CC2)cc1	-4.7
11	CCOC(=O)c1ccc(-c2c(-c3ccc(OC)cc3)oc(=O)c3cc(OC)c(OC)cc23)cc1F	71.1
12	O=C(CN1C(=O)NC2(CCCC2)C1=O)Nc1nc(-c2ccc(F)c(F)c2)cs1	2.5
13	COC(=O)c1c(NC(=O)c2ccccc2OC)sc(C(=O)N2CCOCC2)c1C	-0.9
14	Cc1ccc(C)c(NC(=O)c2ccc3c(=O)n4c(nc3c2)CCC4)c1	-9.6
15	CN(C(=O)CSc1cc(Cl)ccc1Cl)C1CCS(=O)(=O)C1 (stereo not drawn)	4.0
16	CN(Cc1ccccc1)C(=O)COC(=O)C12CC3CC(CC(Br)(C3)C1)C2	-11.0
17	Cc1ccccc1NC(=O)Cc1nc(COC(=O)CCC(=O)c2ccccc2)cs1	-6.4
18	O=C(CN1CCN(S(=O)(=O)c2ccc(F)c(Cl)c2)CC1)N1CCc2ccccc21	1.4
19	O=C(Nc1ccccc1N1CCOCC1)c1cc(Cl)c2c(c1)OCO2	3.6
20	CCOC(=O)[C@H]1[C@H]2COc3ccc(Cl)cc3[C@@H]2N2C(=O)CN(CC3CCCO3)C(=O)[C@@]12C (stereo partly drawn)	0.9
21	N#Cc1ccc(OCC(=O)N2CCN(S(=O)(=O)c3cccc(Cl)c3)CC2)cc1	-7.9
22	CSc1cccc(NC(=O)C2C3C=CC4(O3)C2C(=O)N(CCCN2CCOCC2)C4C(=O)NC2CCCCC2)c1 (stereo not drawn)	0.5
23	CCOc1ccc(S(=O)(=O)NCCc2ccccn2)cc1	-5.4
24	COc1ccc(NC(=O)CSc2ncnc3sc(C)cc23)cc1	-17.5
25	CC1CCCN(CCOc2cccc(Oc3ccccc3)c2)C1 (stereo not drawn)	-8.1
26	Cc1ccc(C(=O)NNC(=O)COC(=O)COc2ccccc2C#N)cc1	-10.3
27	CC1[C@H]2Cc3ccc(O)cc3[C@]1(C)CCN2CCc1ccccc1 (stereo partly drawn)	-9.1
28	CC(NC(=O)COC(=O)c1ccc(CO)cc1)C1CC2CCC1C2 (stereo not drawn)	0.5
29	COc1cc(OC)cc(C(=O)NCC(=O)OCC(=O)NC2CCCc3ccccc32)c1 (stereo not drawn)	0.8
30	O=C(CCC(=O)N1CCN(S(=O)(=O)c2ccc([N+](=O)[O-])cc2)CC1)N1CCOCC1	-9.0
31	CCCCN(C)CCN1C(=O)C2C(C(=O)Nc3ccc(OC)cc3)C3C=CC2(O3)C1C(=O)NC1CCCCC1 (stereo not drawn)	-12.3
32	Cc1cccc(C)c1NC(=O)c1ccc(OCc2c(C)noc2C)cc1	0.3
33	COc1ccc(S[C@@H](CCN2CC[C@H](O)CCC2=O)c2ccccc2)cc1	5.1
34	CC(C)(C)N(Cc1ccccc1)C(=O)CN1C(=O)NC2(CCCCCC2)C1=O	1.2
35	Cc1ccc(C(=O)Nc2ccccc2N2CCCC2)cc1S(=O)(=O)N1CCOCC1	1.2
36	CC(C)N(Cc1ccccc1)C(=O)COC(=O)c1cc[n+]([O-])cc1	3.9
37	NS(=O)(=O)c1ccc(CCNC(=O)c2ccc3c(=O)n4c(nc3c2)CCCCC4)cc1	-8.8
38	Oc1cccc2c(-c3nn[nH]n3)ccnc12	1.2
39	Cc1cccc(OCC(=O)OCC(=O)Nc2ccc(Cl)cn2)c1	2.2
40	Cc1cc(Cl)ccc1OCC(=O)OCC(=O)Nc1cccnc1Cl	-10.6
41	O=C(COC(=O)c1cnc(Cl)c(Cl)c1)c1ccc(F)cc1	7.2
42	O=C(COC(=O)c1cc(S(=O)(=O)N2CCOCC2)ccc1F)c1ccccc1	-1.5
43	O=C(C[C@@H]1C/C=C\C[C@H](Cc2ccc(F)cc2)C(=O)OC[C@@H]2CCCN2C1=O)N[C@H](CO)Cc1ccccc1	14.3
44	O=C(c1cn(Cc2ccccc2)nc1-c1ccc(Cl)cc1)N1CCN(c2ccccn2)CC1	36.1
45	CCCNC(=O)C(Cc1ccc(I)cc1)NC(=O)c1ccc2ccccc2n1 (stereo not drawn)	0.4
46	O=S(=O)(NCc1ccccc1Br)c1ccccc1Br	9.8
47	C[C@H](NC(=O)c1ccccc1)C(=O)N1CCN(Cc2ccc3c(c2)OCO3)CC1	1.0
48	CC1C(=O)Nc2ccc(S(=O)(=O)N3CCCCCC3)cc21 (stereo not drawn)	0.9
49	C[C@]12c3[nH]c4ccccc4c3CCN1C(=O)C(CC(=O)NCc1ccco1)C[C@@H]2C(=O)N1CCOCC1 (stereo partly drawn)	0.2
50	C/C(=N\NC(=O)c1cc(C2CC2)nc2ccccc12)c1ccc(O)cc1O	5.2

# New compounds follow.
cpd	canonical_smiles	Mtb bLac sens
51	O=C(CCNC(=O)c1ccccc1)NNC(=O)COc1ccccc1Cl	-10.2
52	C=CCOC(=O)c1ccccc1N	-0.7
53	Cc1ccc(S(=O)(=O)N2CCN(c3nn(C)c(=O)n(C)c3=O)CC2)cc1C	-3.2
54	O=C(NC1CCN(Cc2ccccc2)CC1)c1cccc(S(=O)(=O)Nc2ccc(SC(F)F)cc2)c1	90.9
55	Cc1cc(C2CCCCC2)n(O)c(=O)c1	1.1
56	O=C(COC(=O)/C=C/c1ccc(F)cc1)Nc1nnc(-c2ccccc2)o1	96.9
57	O=S(=O)(Nc1cccc(S(=O)(=O)N2CCCCC2)c1)c1ccc(Cl)s1	-0.5
58	CCN(CC(=O)Nc1c(F)cccc1F)C(=O)CSC(=S)N1CCCC1	-7.7
59	COc1ccc(NC(=O)COC(=O)CNC(=O)C2CCCCC2)cc1OC	-6.3
60	COc1ccc(CNC(=O)Cn2nc(C(F)(F)F)c(Br)c2C)cc1	-3.9
61	c1ccc(-c2nc(SCc3nc4ccccc4[nH]3)c3oc4ccccc4c3n2)cc1	-4.8
62	CCN(C[C@H]1N[C@@](C)(C(=O)OC)[C@H]2C(=O)N(C)C(=O)[C@@H]12)C(=O)c1ccc(C(C)(C)C)cc1	0.4
63	CC1(C(=O)Nc2ccc(S(=O)(=O)Nc3ncccn3)cc2)CCCC1	-0.8
64	O=C(COC(=O)COc1ccccc1)Nc1ccc(Br)cc1Br	-10.2
65	Cc1cc(C)c(C(=O)COC(=O)Cn2nc(-c3ccccc3)oc2=O)cc1C	1.1
66	O=C(COC(=O)c1ccc2ncsc2c1)Nc1ccccc1Cl	52.4
67	CCOC(=O)CCCCCC(=O)Nc1ccc2c(c1)C(=O)N([C@H](C)CO)C[C@@H](C)[C@H](CN(C)S(=O)(=O)c1cn(C)cn1)O2	2.4
68	C=CC[C@@H](CC(=O)N[C@H](CO)Cc1ccccc1)C(=O)N[C@H](C)COC(=O)[C@@H](CC=C)CC(=O)OC(C)(C)C	-0.3
69	Cc1ccc(OCCCCNC(C)c2ccccc2)c(C)c1 (stereo not drawn)	-1.4
70	O=C1CCC([N+](=O)[O-])C(c2cc(Br)ccc2F)N1 (stereo not drawn)	1.9
71	C[C@H](CO)N1C[C@H](C)[C@@H](CN(C)Cc2ccc(Oc3ccccc3)cc2)Oc2c(NC(=O)c3ccncc3)cccc2C1=O	-0.3
72	O=C(COC(=O)C(CO)NS(=O)(=O)c1ccc(Br)cc1)Nc1ccc2c(c1)OCCO2 (stereo not drawn)	-3.3
73	CN(CC(=O)Nc1ccc(Cl)c(C(F)(F)F)c1)C(=O)C1CCCO1 (stereo not drawn)	-1.1
74	COC(=O)[C@H]1C[C@H](C(=O)O)[C@@H](C)C1(C)C	4.1
75	COc1ccccc1NS(=O)(=O)c1cccc(NS(=O)(=O)c2cc(C(=O)O)ccc2OC)c1	-4.6
76	O=C(Nc1cc(Cl)ccc1N1CCOCC1)c1ccc(F)c(S(=O)(=O)N2CCOCC2)c1	1.4
77	COc1ccc(S(=O)(=O)N2CCOCC2)cc1NC(=O)CC(C)c1ccccc1 (stereo not drawn)	-6.1
78	O=C(CN1C(=O)NC(Cc2ccccc2)C1=O)Nc1ccccc1F (stereo not drawn)	9.6
79	CCN(C[C@H]1N[C@@](CC)(C(=O)OC)[C@H]2C(=O)N(Cc3ccccc3)C(=O)[C@@H]12)C(=O)c1ccc(F)cc1	1.0
80	O=C(Nc1ccc(Cl)cc1)C1CCCN(C2=NS(=O)(=O)c3ccccc32)C1 (stereo not drawn)	0.6
81	CC1CCN(C(=O)COC(=O)c2cccs2)CC1	3.9
82	CCCCN(C(=O)c1ccc(-c2ccc(Cl)cc2)o1)c1c(N)n(CC(C)C)c(=O)[nH]c1=O	-2.6
83	CC1(c2ccccc2)NC(=O)N(CC(=O)N2CC(=O)Nc3ccccc32)C1=O (stereo not drawn)	-1.9
84	C=CC[C@@H](Cc1ccc(F)cc1)C(=O)OC[C@@H]1CCCN1C(=O)[C@@H](CC=C)CC(=O)N(CCO)Cc1ccccc1	-0.7
85	C[C@H](CO)N1C[C@H](C)[C@@H](CN(C)C)Oc2c(NS(=O)(=O)c3cn(C)cn3)cccc2C1=O	3.6
86	CCC(=O)c1ccc(OCC(=O)OCC(=O)Nc2ccc3c(c2)OCCO3)cc1	-3.1
87	Cc1ccc(OCC(=O)OCC(=O)N2c3ccccc3CC2C)cc1C (stereo not drawn)	0.6
88	Cc1ccccc1NC(=O)CN1C(=O)NC2(CCc3ccccc32)C1=O (stereo not drawn)	10.1
89	O=C(OCC(=O)N1CCc2ccccc2C1)c1ccc(OC(F)F)cc1	75.8
90	COc1ccc(CC(=O)OCC(=O)Nc2cc(Cl)ccc2C)cc1	3.4
91	Cc1ccc(C(=O)NN=CC(=O)c2ccccc2)c(C)c1	-5.1
92	COc1ccccc1N1CCN(C(=O)C2=CC=CN3CCS(=O)(=O)N=C23)CC1	-8.0
93	COc1ccc(NC(=O)N(C)C[C@H]2Oc3ccc(NC(=O)Nc4c(C)noc4C)cc3C(=O)N([C@H](C)CO)C[C@H]2C)cc1	-9.3
94	COc1ccc(NC(=O)C2CCC2)cc1S(=O)(=O)N1CCOCC1	-10.8
95	c1ccc2c(c1)ccc1ccccc12	2.2
96	COc1ccc(C)cc1NC(=O)c1cc(S(=O)(=O)N2CCCCC2)ccc1N1CCOCC1	-2.9
97	COc1ccc(NC(=O)CC2SC(N3CCCCC3)=NC2=O)cc1OC (stereo not drawn)	3.1
98	COc1ccc(-c2sc3cc(OC)c(OC)cc3c2C#CC(C)(C)O)cc1	-3.1
99	C[C@H](CO)N1C[C@H](C)[C@@H](CN(C)Cc2ccc(C(=O)O)cc2)Oc2c(cccc2N(C)C)C1=O	-1.5
100	COc1ccc(S(=O)(=O)N(C)C[C@H]2Oc3ccc(NC(=O)Nc4ccc(C(F)(F)F)cc4)cc3C(=O)N([C@H](C)CO)C[C@@H]2C)cc1	92.5

# (list continues)
cpd	canonical_smiles	Mtb bLac sens
101	Cc1ccc(C(=O)COC(=O)CCNS(=O)(=O)c2ccccc2F)cc1	-5.9
102	CCN(Cc1cccs1)C(=O)c1cccc(S(=O)(=O)N2CCN(C)CC2)c1	4.7
103	Cc1ccc(C)c(NC(=O)c2cc(S(=O)(=O)N3CCCCC3)ccc2N2CCOCC2)c1	-2.0
104	O=C(CCNC(=O)c1ccc([N+](=O)[O-])cc1)NNC(=O)c1ccccc1F	-6.9
105	CC(=O)NS(=O)(=O)c1ccc(NC(=O)[C@@H]2CCCN2S(=O)(=O)c2ccc(Cl)cc2)cc1	-2.8
106	CN(c1ccccc1)S(=O)(=O)c1ccc(Cl)c(C(=O)NCc2ccccc2CN2CCCC2)c1	-12.4
107	Cc1ccc(CN(C)C(=O)COc2ccc(S(=O)(=O)N3CCCC3)cc2[N+](=O)[O-])c(C)c1	-4.6
108	C[C@@]12C(=O)Nc3ccc(F)cc3C(=O)N1[C@H]1c3cc(Br)ccc3OC[C@@H]1[C@@H]2c1ccccc1	11.2
109	CC(=O)c1ccc(NC(=O)/C(=C\c2ccco2)NC(=O)c2ccco2)cc1	-4.8
110	CCOc1ccc(NC(=O)CN(C)C(=O)c2csc3c2CCCC3)cc1OCC	-4.0
111	Cc1ccccc1NC(=O)/C(C#N)=C/c1ccc(-c2ccc(Cl)c(C(=O)O)c2)o1	5.5
112	C[C@]12C=CC(=O)C=C1CCC1C2CC[C@@]2(C)C1CCC21OCCO1 (stereo partly drawn)	0.0
113	CCN(c1ccccc1)S(=O)(=O)c1ccc(C(=O)Nc2cccc(NC(C)=O)c2)cc1	-0.3
114	N#Cc1ccc(NCC(=O)N2CCN(S(=O)(=O)c3ccccc3)CC2)cc1	-7.9
115	COc1cc(-c2ccc3oc(-c4cccc(C)c4)c(C#CC4(O)CCCCC4)c3c2)cc(OC)c1OC	59.4
116	COCCCNC(=O)CC1C[C@H](C(=O)N2CCCCC2)[C@@]2(C)c3[nH]c4ccccc4c3CCN2C1=O (stereo partly drawn)	-8.1

# Fetched one by one from the entries so far, four records:
cpd	canonical_smiles	Mtb bLac sens
115	COc1cc(-c2ccc3oc(-c4cccc(C)c4)c(C#CC4(O)CCCCC4)c3c2)cc(OC)c1OC	59.4
109	CC(=O)c1ccc(NC(=O)/C(=C\c2ccco2)NC(=O)c2ccco2)cc1	-4.8
103	Cc1ccc(C)c(NC(=O)c2cc(S(=O)(=O)N3CCCCC3)ccc2N2CCOCC2)c1	-2.0
108	C[C@@]12C(=O)Nc3ccc(F)cc3C(=O)N1[C@H]1c3cc(Br)ccc3OC[C@@H]1[C@@H]2c1ccccc1	11.2

# From PubChem
